Source: PubChem
MgrA DNA FP: S. aureus MgrA-DNA binding modulation | fluorescence polarization | inhibition, %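 (about 10 µg/mL by stock and volumes)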 | 84,000 compounds, 0.13% hits;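 active = above 50% in either of two replicates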;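 note: 0% = protein plus DNA without compound and 100% = DNA alone without protein; higher means less MgrA bound to DNA so lower polarization; one replicate is shown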
Sa helicase inh: blocks Staphylococcus aureus DNA helicase; purified S. aureus helicase, fluorescence unwinding assay; about half of the hits fall short of the stated cut; inhibition, %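 (tested at about 80 µM)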; 120,000 compounds, 0.05% hits;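 active = both duplicates at 50% or more, or one of them with a favoured structure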;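 note: 0% = mean of negative control wells and 100% = mean of positive control wells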
* hit, by the source's call; x = no result given; & = joins results of further samples. The list is partial. The share of hits here may be higher or lower than overall.

Below each compound – Sa helicase inh | MgrA DNA FP
1	CSc1ccccc1C(=O)N1CCN(c2ccccc2)CC1
    0 | x
2	N#Cc1ccccc1-c1ccccc1C(=O)O
    6 | x
3	CC(=O)Oc1cccc(N2Cc3ccccc3C2=O)c1
    -23 | x
4	O=S(=O)(c1ccc2oc3ccccc3c2c1)N1CCOCC1
    10 | -2.8
5	CC(C)NCC(O)c1ccc(O)c(O)c1 (stereo not drawn)
    x | -0.5&0.1&1.6
6	c1csc(-c2nc(-c3c[nH]c4ccccc34)cs2)c1
    -17 | x
7	O=C1CC(c2ccccc2)CC(=O)C1CS(=O)(=O)c1ccccc1 (stereo not drawn)
    x | 6.0
8	COc1ccc(CCN(C)C(=O)CSc2nncs2)cc1OC
    -11 | x
9	Cc1ccccc1-n1c(C)nnc1SCC(=O)N(Cc1ccccc1)C(C)C
    5 | x
10	Oc1c(I)cc2oc3c(c2c1C=NCc1ccncc1)CCCC3
    -71 | x
11	CSc1sc(=O)sc1SC
    -7 | x
12	CC1CN(C)C(C)C/C1=N/O (stereo not drawn)
    -5 | 6.0
13	C(C#CCOc1ccccc1)#CCOc1ccccc1
    x | 0.4
14	Nc1ccc2c(C(F)(F)F)cc(C(F)(F)F)nc2n1
    24 | x
15	CCOc1ccc(Br)cc1C(=O)N/N=C/c1ccco1
    -4 | x

(continued)
Below each compound – Sa helicase inh | MgrA DNA FP
16	O=C(CC(=O)c1ccccc1O)c1cccs1
    x | -1.6
17	O=S(=O)(c1ccc(-c2ccccn2)s1)N1CCC2(CC1)OCCO2
    x | -1.1
18	Nc1ccc(Sc2nc3ccccc3s2)cc1
    3 | x
19	COc1ccc(C2=NN(C(=O)CSc3ccccc3)C(c3ccco3)C2)cc1 (stereo not drawn)
    -3 | x
20	Cc1ccc(-c2c3c(=O)n(C)c(=O)n(C)c3cn2C)cc1
    13 | -1.1
21	CCCOC(=S)NC1OCC(O)C(O)C1O (stereo not drawn)
    10 | -2.4
22	Cc1ccc2oc(=O)c3cc(C(=O)NCCCN4CCN(C)CC4)sc3c2c1
    -6 | x
23	COc1ccc(NC(=O)c2cc(-c3ccc(C)o3)nc3ccccc23)cc1OC
    6 | 2.1
24	CN(C)S(=O)(=O)c1cccc(C(=O)NCC(=O)NC2CCN(Cc3ccccc3)CC2)c1
    9 | x
25	CCCCCOC(=O)C1=C(C)N(C)C(=O)NC1c1cc2c(cc1Br)OCO2 (stereo not drawn)
    x | -0.9
26	CCOc1ccc(CN(C)C(C)C(=O)NCc2ccccc2)cc1 (stereo not drawn)
    3 | x
27	O=C(NCCSc1ccccc1)c1ccc(Br)cc1
    14 | -1.9
28	Cc1n[nH]c(C)c1Cc1ccc(C(=O)O)o1
    -2 | -4.7
29	CC(C)(CNS(=O)(=O)c1ccc(Cl)cc1)OCc1ccccc1
    -13 | -1.4
30	CCOc1ccc2nc(NC(NC(=O)CC)(C(F)(F)F)C(F)(F)F)sc2c1
    -3 | -0.2

Continued.
Below each compound – Sa helicase inh | MgrA DNA FP
31	CCS(=O)(=O)N1CCN(S(=O)(=O)c2ccc(Cl)cc2)CC1
    13 | 0.1
32	O=C(CCCOc1ccccc1)NC1CCCCC1
    5 | -0.4
33	Cc1cc(=O)n(Cc2ccccc2)[nH]1
    -8 | 1.7
34	NC(=O)C1(S(=O)(=O)c2ccccc2)CCCCC1
    21 | x
35	CNC(=O)c1cc(S(=O)(=O)N2CCCC2)ccc1Cl
    4 | 0.6
36	Cc1ccc2nc(Cn3cnc4ccccc43)cc(=O)n2c1
    -4 | x
37	COc1cc(NC(=S)N(C)C)c(OC)cc1Cl
    x | -1.3
38	COc1ccc(N2C(=O)c3ccc(Oc4ccccc4)cc3C2=O)cc1
    3 | -1.1
39	CN(C)S(=O)(=O)c1cc(S(=O)(=O)c2ccc(Cl)c(S(=O)(=O)N(C)C)c2)ccc1Cl
    -15 | x
40	CCC(C)c1ccc(NC(=O)C2CC=CCC2C(=O)O)cc1 (stereo not drawn)
    14 | 4.5
41	CCCN(CCC)C(=O)Cn1c(SCc2cccc(C)c2)nc2ccncc21
    12 | x
42	CCc1ccc2nc3n[nH]c(N)c3cc2c1
    6 | 0.2
43	Cc1ccc(OCC(O)Cn2cnc3ccccc32)cc1 (stereo not drawn)
    -9 | 2.9
44	N#Cc1c(N)oc(-c2ccco2)c1-c1ccco1
    -9 | 6.5
45	O=C1NC(=O)N2CSCC12 (stereo not drawn)
    x | 0.2

Reprinted from the part before: two entries, followed by the next part.
Below each compound – Sa helicase inh | MgrA DNA FP
44	N#Cc1c(N)oc(-c2ccco2)c1-c1ccco1
    -9 | 6.5
45	O=C1NC(=O)N2CSCC12 (stereo not drawn)
    x | 0.2
46	O=C(Nc1nc2ccccc2s1)c1cc(Cl)sc1Cl
    -10 | x
47	C=CCN1C/C(=c2\sc3nc(-c4ccccc4OC(C)=O)nn3c2=O)c2ccccc21
    -8 | x
48	Cc1nc(SCc2noc(CSc3nc(C)c(C)c(C)c3C#N)n2)c(C#N)c(C)c1C
    12 | 1.4
49	COc1cc(C=C2C(=O)N(C)C(=O)N(C)C2=O)ccc1OCc1ccc(Cl)cc1
    x | -0.6
50	CC(=O)N[C@@H](CSC/C=C(\C)CC/C=C(\C)CCC=C(C)C)C(=O)O
    x | -2.6&2.0
51	CCn1c(=O)c2cc(S(N)(=O)=O)ccc2n(CC)c1=O
    1 | -4.2
52	O=c1oc2ccccc2n1CCc1nnc(-c2cccc(Cl)c2)o1
    x | 0.0
53	COC(=O)CNS(=O)(=O)c1ccsc1C(=O)OC
    x | -0.8
54	COc1cccc(N2C(=O)CC(n3nc(Nc4cccc(C)c4)sc3=S)C2=O)c1 (stereo not drawn)
    -8 | x
55	CC(C)(C)NS(=O)(=O)c1cc(C(=O)Nc2nccs2)ccc1Cl
    1 | x
56	CC(=O)Nc1ccc(NC(=O)c2ccc(NC(C)=O)cc2)cc1
    -1 | x
57	Cc1cc(=O)c2ccccc2n1CC(N)=O
    17 | x
58	Cc1ccc(NC(=O)C23CC4CC(CC(C4)C2)C3)cc1
    11 | -0.1
59	Cc1csc(=O)n1CCC(=O)OCc1cc2ccccc2nc1Cl
    -4 | x
60	Cn1cc(C(=O)O)c(=O)c2ccccc21
    16 | -1.8

Next section:
Below each compound – Sa helicase inh | MgrA DNA FP
61	COc1ccccc1-c1noc(CCC(=O)Nc2cc(C(F)(F)F)ccc2Cl)n1
    6 | -0.8
62	CC(=O)NC1C(Sc2ccccc2)OC(CO)C(O)C1O (stereo not drawn)
    6 | x
63	O=c1oc2ccccc2c(O)c1C=Nc1ccccc1
    9 | x
64	O=C(Cc1cccc2ccccc12)NCC1CCCO1 (stereo not drawn)
    12 | -2.0
65	CCc1ccc(-c2nc(CSCC(=O)NCCc3ccccc3)c(C)o2)cc1
    20 | 0.8
66	CCOC(=O)c1c(NC(=S)N2CCOCC2)sc(C)c1C
    x | -0.9
67	CCOC(=O)Cc1nn[nH]n1
    19 | -3.2&-0.4
68	O=C(NCC1COc2ccccc2O1)C1CCCN(C(=O)c2ccc(Cl)cc2)C1 (stereo not drawn)
    23 | x
69	CCOc1ncnc2c1sc1nc3c(cc12)COC(C)(C)C3
    10 | -2.6
70	CCCCN=Cc1c(O)n(Cc2ccccc2)c(=O)[nH]c1=O
    x | -6.6
71	O=C(CSc1cn(Cc2ccccc2)c2ccccc12)NCc1ccco1
    -8 | x
72	CCN(C(=O)c1cccc(Cl)c1)C1CCCCC1
    4 | -1.1
73	CCn1c(=O)cc(C(=O)OC)sc1=Nc1ccc(F)c(F)c1
    19 | -3.3
74	CC(C)c1ccc(C(N)CC(=O)O)cc1 (stereo not drawn)
    x | 1.1
75	CC(=O)Nc1cc2cc(N)ccc2oc1=O
    x | 3.5

Additional results.
Below each compound – Sa helicase inh | MgrA DNA FP
76	Cn1c(C(=O)NCCN2CCOCC2)cc2c(=O)n(C)c3ccccc3c21
    -11 | x
77	O=C(O)C(Cc1c[nH]c2ccccc12)NC(=O)C12CC3CC(CC(C3)C1)C2 (stereo not drawn)
    11 | -1.2
78	CCN1CCC(N(Cc2ccco2)C(=O)NC2CCCC2)CC1
    10 | 5.3
79	Cc1occc1C(=O)Oc1ccc(C(=O)c2ccccc2)cc1
    16 | x
80	Cc1ccc(Nc2nc3nonc3nc2NC2C3CC4CC(C3)CC2C4)cc1 (stereo not drawn)
    x | 1.3
81	CC1(C)CN2C(=S)N(c3ccccc3)C(c3ccccc3)N2C1 (stereo not drawn)
    17 | 2.1
82	CN(C(=O)C1CC1)c1nnc(-c2ccc(F)cc2)s1
    3 | -2.6
83	COc1cc(C(=O)Oc2cccc(C)c2C)cc(OC)c1OC
    x | -2.9
84	CN(Cc1ccccc1)C(=O)COc1cc(=O)n(C)c2ccccc12
    6 | x
85	Cc1c(C#N)c(N)n(CCCn2cccn2)c1C
    x | 5.5
86	Cc1c(OCc2cc(C(F)(F)F)cc(C(F)(F)F)c2)ccc2c1OC(C)(C)CC2=O
    x | 3.1
87	Cc1ccc(C(CNS(=O)(=O)c2ccc(F)cc2C)N2CCN(C)CC2)cc1 (stereo not drawn)
    -1 | x
88	CC(C)c1ccc(NCC(O)COc2ccc(Cl)c(Cl)c2)cc1 (stereo not drawn)
    x | -1.2
89	CSc1ccccc1NC(=O)C1Cc2ccccc2O1 (stereo not drawn)
    13 | x
90	CC1=Nc2c(c(C)nn2-c2ccccc2)C(C(F)(F)F)(C(F)(F)F)O1
    -7 | 0.3

More records follow.
Below each compound – Sa helicase inh | MgrA DNA FP
91	CC(C)c1nc(C#N)c(NCc2cccnc2)o1
    -11 | x
92	O=C1OC(CN2CCOCC2)CN1N=Cc1ccc([N+](=O)[O-])o1 (stereo not drawn)
    x | -1.1
93	Cc1nnc(SCC(=O)Nc2ccccc2)n1N
    -14 | x
94	CCCn1c(=O)n(C)c(=O)c2c(SCC(=O)Nc3cccc(OC)c3)nc(C(C)C)nc21
    0 | x
95	CCOC(=O)c1c(C)oc2c1c(CN1CCN(c3ccccc3F)CC1)c(O)c1ccccc12
    9 | 2.2
96	CCOC(=O)C1=C(C)N=c2s/c(=C3\C(=O)N(OC(C)=O)c4ccccc43)c(=O)n2C1/C=C/c1ccccc1 (stereo not drawn)
    x | -2.8
97	O=C(O)c1cc(NCc2ccccc2)ccc1N1CCOCC1
    -4 | -0.2
98	CC(NC(=O)Nc1ccc(Cl)cc1)c1nc(-c2cccnc2)n[nH]1 (stereo not drawn)
    -13 | 2.0
99	C=CCOC(=O)COc1ccc2c(CC)cc(=O)oc2c1
    13 | -0.2
100	CN(C)C(=O)CCc1cc(C(C)(C)C)c(O)c(C(C)(C)C)c1
    x | 0.4
101	COC(=O)C1(C(=O)OC)C(C)(C)C1(C(=O)OC)C(=O)OC
    22 | -4.2
102	N#CC1=C(N)OC2=C(C(=O)CCC2)C1Cc1ccccc1 (stereo not drawn)
    -11 | x
103	O=C1NCCN1CCNS(=O)(=O)c1ccc(F)cc1
    -9 | -0.4
104	CCn1c(=O)n(CC(=O)N(C)Cc2ccccc2)c(=O)c2ccccc21
    9 | 0.9
105	O=C(CSc1n[nH]c(=O)n1-c1ccccc1)c1ccc2c(c1)OCCO2
    x | -2.5

4 structures from above, sorted by number of heavy atoms, rising:
Below each compound – Sa helicase inh | MgrA DNA FP
93	Cc1nnc(SCC(=O)Nc2ccccc2)n1N
    -14 | x
99	C=CCOC(=O)COc1ccc2c(CC)cc(=O)oc2c1
    13 | -0.2
100	CN(C)C(=O)CCc1cc(C(C)(C)C)c(O)c(C(C)(C)C)c1
    x | 0.4
97	O=C(O)c1cc(NCc2ccccc2)ccc1N1CCOCC1
    -4 | -0.2

Entries of single compounds, looked up by structure:
CSc1sc(=O)sc1SC across the screens: Sa helicase inh = -7; MgrA DNA FP = x
CCS(=O)(=O)N1CCN(S(=O)(=O)c2ccc(Cl)cc2)CC1 across the screens: Sa helicase inh = 13; MgrA DNA FP = 0.1

Going on with the list.
Below each compound – Sa helicase inh | MgrA DNA FP
106	CN(C)C(=O)Oc1ccc[n+](C)c1
    x | -2.1
107	O=S1(=O)NC(=NCC(c2ccc(F)cc2)N2CCOCC2)c2ccccc21 (stereo not drawn)
    -13 | x
108	CN(c1ccc(C(=O)N2CCN(c3ccc(F)cc3)CC2)cc1)S(C)(=O)=O
    14 | 0.9
109	Cc1ccc(Cl)cc1NC(=O)CC1SC(N)=NC1=O (stereo not drawn)
    4 | 2.3
110	COc1cccc(-c2csc3nc[nH]c(=O)c23)c1
    2 | -6.9
111	N#Cc1cnn(-c2ccccc2)c1NC(=O)CSc1nc2ccccc2s1
    x | 0.8
112	CCN1c2ccccc2-c2nc3ccccc3n2C1c1ccco1 (stereo not drawn)
    8 | x
113	COc1cc(C(=O)OCCCN=C2NS(=O)(=O)c3ccccc32)cc(OC)c1OC
    x | -1.4
114	Cc1ccc(/C=C/C(=O)OCc2cc(Cl)cc3c2OCOC3)o1
    -6 | x
115	O=C(Cc1ccccc1)NC1CCSc2ccccc21 (stereo not drawn)
    -11 | x
116	O=C(Nc1nnc(CCS(=O)(=O)c2ccc(Br)cc2)s1)c1ccccc1
    x | 0.3
117	O=c1c2ccccc2nnn1COc1cccc(Cl)c1
    24 | x
118	COc1ccc(C2(C(=O)N3CCOCC3)CCCC2)cc1
    9 | 0.6
119	Cc1nn(C2CCS(=O)(=O)C2)c2nc(C3CC3)cc(C(=O)OCC#N)c12 (stereo not drawn)
    -4 | x
120	Cc1ccc(Cn2nnc3c(=O)n(CC(=O)NCc4ccccc4Cl)cnc32)cc1
    11 | x

The results go on.
Below each compound – Sa helicase inh | MgrA DNA FP
121	Cc1cc(NC(=O)Cc2cccc(C(F)(F)F)c2)n(-c2ccccn2)n1
    11 | -1.1
122	Cc1ccc(SCC(=O)N(C)C2CCS(=O)(=O)C2)cc1 (stereo not drawn)
    -22 | x
123	COc1nc(OC)nc(N2CCN(c3ccccc3F)CC2)n1
    -14 | x
124	COC(=O)c1sc(S(=O)(=O)N2CCCC2)c(C(=O)OC)c1C
    7 | x
125	Cc1cccn2cc(-c3ccccc3Cl)nc12
    x | -1.8
126	NS(=O)(=O)c1cc(Cl)c(Cl)c(S(N)(=O)=O)c1
    x | 0.9
127	O=C(NCCc1ccncc1)NC1CCCCC1
    -3 | -1.4
